# Compound activity as filed in PubChem BioAssay.
# RE007 growth inh: qHTS Assay for Inhibitors of the HIV-1 protein Vpr; S. pombe RE007 Vpr strain, BacTiter-Glo ATP luminescence, 24 h; control for the full effect not named in the record; Potency, µM (doses to about 92.2 µM), for the others: at the top dose activity change, negative = less growth; 0.21% of 360,000 active; AID 651644, 2012; active = well fitted falling curve with a large enough effect; inconclusive = small, poorly fitted or top-dose-only effect; inactive = no such curve, though single readings can be large or run the other way;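 also: nearly all actives have a fitted effect of over 50% in size; the assay follows cell death caused by Vpr and the record does not say whether a fall means rescue or toxicity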
#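 Fission yeast RE007 carrying one integrated HIV-1 vpr copy, seeded at OD 0.01 in PMG+AL medium with 23 nL pinned compound. Grown 24 h at 30 degrees; viability read by BacTiter-Glo luminescence after 5 min.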
# StopGo reporter: High Throughput Screening for Foot and Mouth Disease Virus Antivirals. Potency, µM (doses to about 57.9 µM), without a hit: at the top dose signal change, negative = less light. AID 1159524, 2015. human cells with a luciferase reporter of 2A StopGo recoding; control for the full effect not named in the record. 1.2% of 410,000 active; active = well fitted falling curve with a large enough effect; inconclusive = small, poorly fitted or top-dose-only effect; inactive = no such curve, though single readings can be large or run the other way; tested in HEK293T cells; also: nearly all actives have a fitted effect of over 45% in size; luciferase light after 4 h
# Active calls of the source: *; ? = inconclusive; [ ] = dose if it differs, or a comment. % is scaled to controls: 0 for no effect and ±100 for the full control effect; potency is read from the fitted curve at half-maximal effect.
SMILES,RE007 growth inh,StopGo reporter
COC(=O)[C@]12CCCCC=C1N(Cc1ccccc1)C(=O)[C@H](CC(=O)N1CCSCC1)C2,-5%,-11%
Cc1ccccc1S(=O)(=O)NC(=O)C1(C)CCN1C(=O)C1(c2ccc(Cl)cc2)CC1 (stereo not drawn),20%,47%[activator]
Cc1ccccc1-c1cc2nc(Nc3ccc(F)cc3)n(C)c(=O)c2s1,7%,7%
CCc1cc2c(SCC(=O)NC3CCCC3)ncnc2s1,-3%,0%
CC(C)N1CC2(CC(c3ccccc3F)=NO2)CN1C(=O)c1ccco1 (stereo not drawn),-3%,75%[activator]
OC(c1ccc2c(c1)OCO2)c1ncc(-c2ccc(Cl)cc2)[nH]1 (stereo not drawn),-22%,16%
C=CCn1c(SCC(=O)Nc2cc(C)on2)nnc1-c1ccncc1,-6%,-2%
O=C(NCCNC(=O)c1ccc(Cl)cc1Cl)c1ccc(Cl)cc1Cl,-3%[18.4 µM],-9%
CC(O)(c1ccccc1)c1nc(-c2cccc(C(F)(F)F)c2)cs1 (stereo not drawn),?,-10%
COc1cc(OC)nc(Nc2nc(C(C)N)cs2)n1 (stereo not drawn),1%,-26%
Cn1nc(C(C)(C)C)cc1C(=O)N1CCC(C)(C(=O)NS(=O)(=O)C2CC2)C1 (stereo not drawn),11%,-12%
CC1=C(C(=O)N(C)C)CC(CC(=O)NCCCN(C)C)C(=O)N1Cc1ccc(C(C)(C)C)cc1 (stereo not drawn),4%,0%
CC(C)n1c(=O)c2ccccc2n1Cc1cn(-c2ccccc2)nn1,-13%,-29%
Cc1nc(C)c(-c2csc(Nc3ccc(Cl)cn3)n2)s1,-18%,0%
Cc1ccc(CNC(=O)c2ccc3c(c2)S(=O)(=O)c2ccccc2C3=O)cc1,5%,6%
COc1ccc(S(=O)(=O)N2CCCCCC2)cc1NC(=O)Cc1cccc(C(F)(F)F)c1,-6%,-3%
COc1ccc(CCC(=O)N2CCN(S(=O)(=O)c3ccc(OC)c([N+](=O)[O-])c3)CC2)cc1,11%,-20%
CC(C)C[C@H]1CNC(=O)C(=O)N1C[C@H]1CCCN1C[C@H](Cc1ccc(O)cc1)N1C[C@H](CC(C)C)N(CC2CCCCCC2)C(=O)C1=O,2%,24%
CCN(C1CCCCC1)S(=O)(=O)CCNC(=O)c1ccc(OC)cc1,14%,-17%
COCCCN(Cc1cc(OC)c(OC)c(OC)c1)C(=S)Nc1cccc(Cl)c1,-8%,?
Cc1ccc(C(=O)NCC(=O)Nc2ccccc2C)o1,3%,-11%
O=S1(=O)CC(N2CCCC2)CN1Cc1cn(Cc2ccc(Cl)cc2)nn1 (stereo not drawn),-19%,-20%
O=C1NC[C@@H](CCCCN2C[C@H](Cc3ccccc3)N(CCC3CCCCC3)C(=O)C2=O)N(CCc2ccccc2)C1=O,6%,26%
O=C1NC(Cc2ccccc2)c2nc3cc(F)ccc3c(=O)n2-c2cc3ccccc3cc21 (stereo not drawn),7%,?
CN(C)CCN1CCN(C(c2cc3ccccc3o2)c2nnnn2C(C)(C)C)CC1 (stereo not drawn),9%,-11%
CC(=O)OCC1OC(OC2C[C@]3(C)C(CC(O)C4C([C@](C)(CCC=C(C)C)OC5OC(CO)C(O)C(O)C5O)CC[C@]43C)[C@@]3(C)CCC(O)C(C)(C)C23)C(O[C@@H]2OC(C)C(O)C(O)C2O)C(O)C1O (stereo partly drawn),-10%,-23%
N#CCc1ccc(-c2cccc3nccn23)cc1,-24%,-14%
COc1ccc(OC)c(CC(=O)Nc2ccc3c(c2)c(=O)n(C)n3Cc2cccc(C(F)(F)F)c2)c1,1%,-22%
CN(C)S(=O)(=O)c1ccc(SCC(=O)Nc2cccc(S(=O)(=O)N3CCCC3)c2)nc1,-13%,-24%
O=[N+]([O-])c1cccc(-c2ccc3nnc(SCc4cccnc4)n3n2)c1,1%,-9%
CC1(Cc2ccc3ccccc3n2)C(=O)Nc2ccc(OC(F)(F)F)cc21 (stereo not drawn),-3%,-21%
Cc1cc(C)c(C(O)c2ncc(-c3ccccc3Cl)[nH]2)c(C)c1 (stereo not drawn),-27%,10%
CCCS(=O)(=O)NC(=O)C1(C)CCCN(C(=O)c2ccccc2)C1 (stereo not drawn),12%,4%
Cc1c(Cc2ccccc2)[n+](=O)c2ccccc2n1[O-],4%,-5%
O=C1C=CC[C@H](/C=C/C[C@@H](O)C[C@H](O)CCc2ccccc2)O1,13%,-12%
COc1ccc(CN2C(=O)CN(S(C)(=O)=O)CC2(C)C(=O)Nc2c(C)cccc2C)cc1OC (stereo not drawn),-3%,-9%
CCNC(=O)C1(C)CCN(C(=O)c2ccc(F)c(Cl)c2)C1 (stereo not drawn),14%,-1%
CC[C@H](NC(=O)/C=C/[C@H]1O[C@@H](n2cc(C)c(=O)[nH]c2=O)C[C@@H]1O)c1ccccc1,-4%,-23%
COC(=O)c1cnc(Nc2nc(C(N)Cc3ccccc3)cs2)nc1C(F)(F)F (stereo not drawn),-11%[18.4 µM],-19%
C[C@H]1CCCCO[C@H](CN(C)S(=O)(=O)c2cn(C)cn2)[C@@H](C)CN([C@@H](C)CO)C(=O)c2cc(NS(=O)(=O)c3ccccc3)ccc2O1,2%,-16%

# Compound profiles, as listed above. Screens in order: RE007 growth inh	StopGo reporter
# CCNC(=O)C1(C)CCN(C(=O)c2ccc(F)c(Cl)c2)C1 (stereo not drawn) across the screens: 14%	-1%
# CC(C)C[C@H]1CNC(=O)C(=O)N1C[C@H]1CCCN1C[C@H](Cc1ccc(O)cc1)N1C[C@H](CC(C)C)N(CC2CCCCCC2)C(=O)C1=O across the screens: 2%	24%
# CC[C@H](NC(=O)/C=C/[C@H]1O[C@@H](n2cc(C)c(=O)[nH]c2=O)C[C@@H]1O)c1ccccc1 across the screens: -4%	-23%
# Cc1ccc(CNC(=O)c2ccc3c(c2)S(=O)(=O)c2ccccc2C3=O)cc1 across the screens: 5%	6%

# Quoted at random: 3 entries already listed.
SMILES,RE007 growth inh,StopGo reporter
C[C@H]1CCCCO[C@H](CN(C)S(=O)(=O)c2cn(C)cn2)[C@@H](C)CN([C@@H](C)CO)C(=O)c2cc(NS(=O)(=O)c3ccccc3)ccc2O1,2%,-16%
CCCS(=O)(=O)NC(=O)C1(C)CCCN(C(=O)c2ccccc2)C1 (stereo not drawn),12%,4%
COC(=O)c1cnc(Nc2nc(C(N)Cc3ccccc3)cs2)nc1C(F)(F)F (stereo not drawn),-11%[18.4 µM],-19%

# (continued)
SMILES,RE007 growth inh,StopGo reporter
O=C(NCCO)C(=O)NCC(c1cccs1)S(=O)(=O)c1ccc(F)cc1 (stereo not drawn),2%,-18%
CCC(c1nnnn1C1CCCCC1)N1CCC2(CC1)C(=O)NCN2c1ccccc1 (stereo not drawn),18%,-1%
CCOC(=O)[C@H](C)N1[C@H](C)[C@H](c2ccccc2)Oc2ccc(Cl)cc2S1(=O)=O,5%,0%
CC(C)C[C@H]1CN([C@@H](CC(C)C)CN2CCC[C@@H]2CN2C(=S)NC[C@@H]2Cc2ccc(O)cc2)C(=S)N1CC1CCCCC1,5%,-19%
CCOC(=O)C1(C)CCN1C(=O)c1csnn1 (stereo not drawn),7%,-22%
CCCCC[C@H](C)N1C[C@@H](COCc2ccccc2)Oc2cc(N3CC[C@H](N(C)C)C3)ccc2S1(=O)=O,-18%,-15%
Cc1ccc(CC(=O)OC(C)C(=O)NC2CCCCC2C)cc1C (stereo not drawn),1%,-10%
CCOC(=O)[C@]12CCCC=C1N(Cc1ccccc1)C(=O)[C@H](CC(=O)N1CCOCC1)C2,0%,-11%
CC1(C(=O)NS(=O)(=O)c2ccc(C#N)cc2)CCN1C(=O)C1(c2ccccc2)CCCC1 (stereo not drawn),7%,-10%
CC(C)CCNC(=O)[C@@H](Cc1ccccc1)NC(=O)CC[C@H]1O[C@@H](n2ccc(=O)[nH]c2=O)[C@H](O)[C@@H]1O,5%,-9%
C[C@H]1CN([C@@H](C)CO)C(=O)CCCn2nncc2CO[C@H]1CN(C)S(=O)(=O)c1ccc2c(c1)OCCCO2,34%,-7%
C=CCOC(=O)C1=C[C@@H](c2coc3ccccc3c2=O)C[C@@H](OCCCCO)O1,1%,-16%
O=C(Nc1ncccc1O)c1ccc(Cl)c(S(=O)(=O)N2CCCC2)c1,-5%,-6%
CC1(C(=O)NS(=O)(=O)C2CC2)CCCN(C(=O)c2ccco2)C1 (stereo not drawn),-7%,-14%
C[C@@H]1CN([C@H](C)CO)C(=O)CCCn2nncc2CO[C@H]1CN(C)Cc1ccccc1,-2%,-9%
O=C(NCc1ccccn1)[C@@H]1CCCN1C(=O)[C@@H]1CCCN1,1%,-20%
COc1cccc(NC(=O)C2(C)CCN2Cc2cccc(OC)c2F)c1 (stereo not drawn),-17%[18.4 µM],-23%
O[C@@H]1C[C@H](c2ccccc2)N(Cc2cccs2)C[C@H]1n1cc(C2CC2)nn1,1%,-5%
Cc1cc(C)cc(C(O)c2ncc(-c3ccc4ccccc4c3)[nH]2)c1 (stereo not drawn),4%,-4%
COc1ccc(Cn2cc(CN3CC(N4CCSCC4)CS3(=O)=O)nn2)cc1 (stereo not drawn),6%,-14%

# Arranged by molecular weight (lowest first): part of the list above
SMILES,RE007 growth inh,StopGo reporter
CCOC(=O)C1(C)CCN1C(=O)c1csnn1 (stereo not drawn),7%,-22%
CCOC(=O)[C@]12CCCC=C1N(Cc1ccccc1)C(=O)[C@H](CC(=O)N1CCOCC1)C2,0%,-11%
C[C@H]1CN([C@@H](C)CO)C(=O)CCCn2nncc2CO[C@H]1CN(C)S(=O)(=O)c1ccc2c(c1)OCCCO2,34%,-7%

# 2 of the compounds above, as tab-separated lines.
smiles	RE007 growth inh	StopGo reporter
C[C@@H]1CN([C@H](C)CO)C(=O)CCCn2nncc2CO[C@H]1CN(C)Cc1ccccc1	-2%	-9%
C=CCOC(=O)C1=C[C@@H](c2coc3ccccc3c2=O)C[C@@H](OCCCCO)O1	1%	-16%

# (cont.)
SMILES,RE007 growth inh,StopGo reporter
CC(C)=CCn1c2ccc(NC(=S)NC3CC3)cc2c(=O)n1C,-15%,2%
CCN(C(=O)COC(=O)CCC(=O)c1ccc(C)cc1)c1c(N)n(Cc2ccccc2)c(=O)[nH]c1=O,-1%,-18%
FC(F)(F)c1nc2nccnc2[nH]1,-3%,-8%
COC(=O)c1ccc2nc(-c3ccc(F)cc3)c(Cc3ccsc3)n2c1,0%,-21%
Cc1ncoc1C(=O)NCC1=C(c2cccc3ccccc23)C[C@@H]2CC[C@H]1N2Cc1ccco1,-1%,8%
COc1ccc(-c2ccc3oc(-c4ccsc4)c(-c4ccc(OC)cc4)c3c2)cc1,3%,-8%
COC(=O)[C@@]1(Sc2ccc(C)cc2)CC(=O)N(C(=O)/C=C/c2ccccc2)[C@@H]1c1ccccc1,11%,-23%
CCCCc1nc2sc3c(c2c(=O)[nH]1)CC(C)(C)OC3,-1%,-6%
CC(C)CC(N)c1csc(Nc2ccc(C(F)(F)F)cn2)n1 (stereo not drawn),4%,?
COCCNC(=O)C1(C)CCN(Cc2ccc(C(C)C)cc2)C1 (stereo not drawn),0%,-21%
Cc1ccc(F)cc1C(=O)N1CCCC(c2cc(C(=O)NCc3ccccc3)no2)C1 (stereo not drawn),1%,?
COc1ccccc1Cc1c(-c2ccc(C)cc2)nc2c(C)cc(Br)cn12,-8%,-15%
COc1ccc(S(=O)(=O)N(C)C[C@H]2OCc3cn(nn3)CCCC(=O)N([C@@H](C)CO)C[C@@H]2C)cc1,-4%,-3%
COc1ccccc1CNC(=O)c1cc(-c2ccccc2)nn1CC1CC(c2cccnc2)=NO1 (stereo not drawn),13%,13%

# Only part of the results is shown, so the mix of outcomes need not match the whole.
